AID504770: growth inhibitors of E. coli YBA685 in a screen for V. cholerae RctB (chromosome II replication) inhibitors. E. coli YBA685 rctB-dependent plasmid, OD600 growth, 3 h; hits give low values. z-score (no concentration beside the values). 0.27% of 130,000 active. AID 504770;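 active = z-score under -2 on both plates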;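 note: wells of about 30 µL received 100 nL stock; score is relative to mean and SD of the test wells; the first replicate is given; strong numbers were not always called active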
CapD inh: blocks the Bacillus anthracis CapD enzyme. purified CapD enzyme, fluorescence intensity read-out; hits give low values; some hits fall short of the stated cut. z-score (no concentration beside the values). 0.23% of 140,000 active;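 active = z-score under -4 in either of two replicates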;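 note: stock transfer was 100 nL into about 40 µL; score is relative to mean and spread of the plate; one replicate is shown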
Starred values were filed as active, the others as inactive; . = no result given.

The line under a structure holds: AID504770	CapD inh
- CCCCOc1cc(C(N)=O)ccc1OC
  .	0.3
- CCOC(=O)N1CCN(C(=O)CC2c3ccccc3Oc3ccccc32)CC1
  -0.8	-0.3
- O=C(Nc1nc2c(s1)Cc1ccccc1-2)c1ccc([N+](=O)[O-])cc1
  .	-0.005
- Cc1ccc(S(=O)(=O)CCN(C)Cc2cccnc2)cc1
  1.1	-0.66
- O=C1N/C(=N/c2ccccn2)SC1Cc1cccc(Cl)c1 (stereo not given)
  .	1.3
- COc1ccc2nc3oc(C(=O)NCCC4=CCCCC4)cc3cc2c1
  -5.2*	0.34
- O=S(=O)(Nc1ccccn1)c1ccc(-n2cccn2)cc1
  0.05	20
- CCOc1cc(/C=C2\SC(=O)N(Cc3ccc(F)cc3)C2=O)ccc1O
  0.9	0.74
- CC(C)C(O)(C(=O)OC[C@@H]1CC[N+]2([O-])CCC[C@@H]12)C(C)O (stereo not given in full)
  0.85	0.78
- CCCCn1c(=O)c(C(=O)N/N=C/c2cccnc2)c(O)c2ccccc21
  -0.1	0.62
- NS(=O)(=O)c1ccc(-c2cc(C(F)(F)F)ccn2)s1
  -1	14
- N#Cc1c(C(F)(F)F)cc(-c2ccc(Cl)cc2)nc1SCC(=O)O
  -0.15	0.57
- CSc1nnc(CNC(=O)Cc2ccccc2)n1-c1ccc(F)cc1
  2.1	-0.48
- COc1ccc(C2C3=C(CCCC3=O)Nc3ncnn32)cc1 (stereo not given)
  0.1	0.65
- Cc1ccc(-c2nc3cc(C)c(C)cc3nc2-c2ccc(C)cc2)cc1
  .	-0.15
- O=C(c1ccccc1)c1nccc2ccccc12
  -0.55	-1.2
- CCOc1ccccc1N1CCN(Cc2cnc(-c3ccccc3)[nH]2)CC1
  -0.25	0.065
- CC(/C=C(\C#N)S(=O)(=O)c1ccccc1)c1ccccc1 (stereo not given)
  -0.6	.
- Cc1onc(-c2ccccc2Cl)c1C(=O)NCCNc1ccc(C(F)(F)F)cc1[N+](=O)[O-]
  .	-0.12
- N#CSCC(=O)c1cccs1
  -3.7*	-0.045
- COc1cccc(NCc2cn(-c3ccccc3)nc2-c2cccs2)c1
  0.8	45
- Cc1occc(=O)c1OC(=O)c1ccc(Cl)cc1
  -0.15	-0.55
- Cc1cc(C)nc(NS(=O)(=O)c2ccc(Br)cc2)n1
  1	-0.05
- CCN(CC)CCOc1nnc(-c2ccc(C)cc2)c2ccccc12
  .	-0.44
- CN1C(=O)C(=Cc2coc3ccccc3c2=O)C(=O)N(C)C1=O
  -0.35	-0.27
- CCCNC(=O)Cn1c2ccccc2c2nc(=O)cc(C)n21
  -0.1	1.3
- C#CC(CC)(CC)Nc1ccsc1C(=O)O
  -0.55	-0.15
- O=C(O)c1cccc(NC2=C(N3CCOCC3)C(=O)c3ccccc3C2=O)c1
  .	-0.24
- COc1ccc(C2Nc3cccc4cccc(c34)N2)cc1Br
  .	3.6
- O=C(Cc1coc2cc3c(cc12)CCC3)NCCNc1ncc(C(F)(F)F)cc1Cl
  0.5	.
- CC(C)(C)OC(=O)NCC1CCN(S(=O)(=O)Cc2ccccc2)CC1
  0.8	0.75
- COc1cc(-n2c(C)nc3cc(C(=O)NCc4ccccn4)ccc32)cc(OC)c1OC
  .	-1.1
- Cc1ccccc1C=Nc1ccccc1C#N
  -0.65	7.5
- CC(=O)NCCC(=O)N1CCN(S(=O)(=O)c2ccc(C(C)C)cc2)CC1
  -0.5	.
- COc1cc(OC)cc(N2CCN(C(=O)OCCN3CCN(Cc4ccc(OC)c(Br)c4)CC3)CC2)c1
  .	0.2
- COC(=O)c1c(O)c2ccccc2[nH]c1=O
  -0.25	0.48
- COc1ccc(-n2nc3c(c2NC(=O)c2ccccc2)CSC3)cc1
  1.4	.
- NC(=O)CSc1nnc2n(-c3ccccc3)c(=O)c3c(n12)-c1ccccc1CC31CCCC1
  2.1	-1.8
- CCC(=O)Nc1ccccc1C(=O)N1CCC(c2nc(-c3ccncc3)no2)CC1
  .	0.12
- COC(=O)C(C)NC(=O)c1cn(-c2ccccc2)nc1-c1ccc(F)cc1 (stereo not given)
  0	-0.61
- Cc1ccc(F)cc1S(=O)(=O)N(C)C1CCN(Cc2ccccc2C(F)(F)F)C1 (stereo not given)
  .	0.26
- CCOC(=O)C1=C(C)Nc2nnnn2C1c1cc(OC)ccc1OC (stereo not given)
  .	-0.53
- COc1ccc(CNC(=O)CN(c2ccccc2OC)S(C)(=O)=O)cc1
  -0.15	-0.2
- CCN1CC(NS(=O)(=O)c2cc(Cl)ccc2Cl)CN1CC
  .	0.21
- O=C1C2N=NN(Cc3ccccc3)C2C(=O)N1c1ccccc1 (stereo not given)
  1.2	-0.3
- CCOC(=O)c1cc(C)n(-n2cnnc2)c1C
  0.15	0.27
- CCS(=O)(=O)N1CCc2cc(C(=O)CSc3nnc(C)s3)ccc21
  0.35	.
- Cc1ccc(SCCC(=O)Nc2ccc(CC#N)cc2)cc1
  -0.05	-0.1
- CN(C)S(=O)(=O)c1ccc(NC(=O)c2cc3cccc4c3n(c2=O)CCC4)cc1
  .	-0.4
- O=c1c2ccccc2c(=O)n(Cc2ccccc2)n1Cc1ccccc1
  -0.4	0.3
- CC(C)(C)c1nnc2n(c1=O)N=C(c1ccc(F)cc1)CS2
  1.6	-0.18
- CCN(CC)S(=O)(=O)c1ccc2[nH]c(=O)cc(C(=O)O)c2c1
  -0.8	.
- COc1ccc(/C=C/C(=O)C2(O)CCCCC2)cc1
  .	-0.88
- CC(NC(=O)c1ccccc1C(=O)NC(C)c1ccc2c(c1)OCCO2)c1ccc2c(c1)OCCO2 (stereo not given)
  -0.15	0.075
- CCOC(=O)c1cnn2c(C)c(Cc3c(Cl)cccc3Cl)c(C)nc12
  .	-0.005
- CCCn1c2ccccc2c2cn[nH]c(=O)c21
  -0.65	32
- CCC(C)NC(=O)CSc1nc2ccsc2c(=O)n1Cc1ccccc1Cl (stereo not given)
  -0.6	-0.57
- Cc1ccc(-c2csc(-c3cccnc3)n2)cc1C
  -0.25	20
- CCCCN(C)C(=O)C1c2ccccc2C(=O)N2CCc3ccccc3C12 (stereo not given)
  1.8	0.02
- NNC(=O)CCc1ccccc1
  -0.15	0.21

Following part:
The line under a structure holds: AID504770	CapD inh
- Cn1cc(S(=O)(=O)N2CCc3ccccc32)cc1C(=O)NC1CCCCCCC1
  -0.35	0.11
- O=S(=O)(Nc1n[nH]c2ccccc12)c1ccc(Cl)c(Cl)c1
  .	0.89
- COc1ccc(C2CC(O)=C(C#N)c3nc4ccccc4n32)cc1 (stereo not given)
  -0.25	.
- Fc1ccc(-c2cn3c(n2)-c2ccccc2C3)cc1
  -0.5	44
- C=CCn1c(N)nc2ccccc21
  -0.7	0.11
- CN(C(=O)CSC(=S)N1CCCC1)c1ccccc1
  -0.3	0.16
- COC(=O)c1cc2nc(-c3ccccc3)cc(C)n2n1
  -0.7	13
- COC(=O)[C@@H]1CC(O)CN1C(=O)C12CC3CC(CC(C3)C1)C2 (stereo not given in full)
  0.35	.
- NC(=O)CSc1oc(-c2ccccc2)nc1S(=O)(=O)c1ccccc1
  -0.6	-0.39
- CCn1c2ccccc2c2cc(/C=C3\Cc4ccccc4C3=O)ccc21
  0.35	0.52
- CCCCOc1ccc(C(=O)Nc2ccc(O)c(-c3nc4ccccc4s3)c2)cc1
  .	0.18
- CCOC(=O)c1cnn2c(N)c(C#N)cnc12
  1.1	37
- N#CC1=C(SCC(=O)OCc2ccccc2)NC(=O)CC1c1ccccc1[N+](=O)[O-] (stereo not given)
  .	0.085
- Cc1ccccc1C1NS(=O)(=O)N=C1N (stereo not given)
  0.75	0.055
- COc1ccc(NS(=O)(=O)c2ccc(Oc3c(C#N)cccc3C#N)cc2)cc1
  0.95	1.6

Part of the list above, as tab-separated lines.
SMILES	AID504770	CapD inh
COc1ccc(C2CC(O)=C(C#N)c3nc4ccccc4n32)cc1 (stereo not given)	-0.25	.
O=S(=O)(Nc1n[nH]c2ccccc12)c1ccc(Cl)c(Cl)c1	.	0.89
NC(=O)CSc1oc(-c2ccccc2)nc1S(=O)(=O)c1ccccc1	-0.6	-0.39
COc1ccc(NS(=O)(=O)c2ccc(Oc3c(C#N)cccc3C#N)cc2)cc1	0.95	1.6
CCn1c2ccccc2c2cc(/C=C3\Cc4ccccc4C3=O)ccc21	0.35	0.52

The listing continues.
The line under a structure holds: AID504770	CapD inh
- COc1ccc(C(=O)N2c3ccccc3N3C(c4c(C)c(C)cc(C)c4C)=NON23)cc1
  .	-0.035
- CC1(C)CC(=O)c2c(-c3cccnc3)n[nH]c2C1
  -0.8	0.05
- C=CCn1c(SC(C)C(=O)NC(N)=O)nc2ccccc2c1=O (stereo not given)
  -1.2	.
- CC(=O)C(N=Nc1ccc2c(c1)COCO2)C(C)=O
  .	-2.2
- O=C1c2oc3ccccc3c(=O)c2C(c2ccncc2)N1c1nccs1 (stereo not given)
  0.3	0.04
- COc1cccc(NC(=O)CC(C)NC2CC(C)(C)NC(C)(C)C2)c1 (stereo not given)
  0.15	.
- O=C(NCc1ccc(F)cc1)c1ccc2c(=O)n(CCc3c[nH]c4ccccc34)c(=S)[nH]c2c1
  .	-0.65
- Cn1c(=O)c([N+](=O)[O-])c(NCc2ccccc2)c2ccccc21
  .	-0.89
- Cc1ccc2c(c1)C1CN(C)CCC1N2S(=O)(=O)c1ccc(C#N)cc1 (stereo not given)
  0.55	.
- O=C1Nc2c(C(F)(F)F)cccc2C12SCCS2
  -0.2	0.45
- Cc1nn(C(=O)C2CC2)c(C)c1Oc1ccc(Cl)cc1
  1.7	0.59
- COc1ccc2c(c1)c(C(=O)N1CCCC1)c(C)n2Cc1ccccc1
  1.7	-0.74
- CC(C)n1nnnc1SCC(=O)OC1CCCCC1
  -0.35	.
- CCn1c(-c2ccc3c(c2)OCCO3)cnc1SCC(=O)N1CCc2ccccc2C1
  0.2	.
- COc1ccc(/C=C2/SC(=O)N(CC(=O)Nc3ccc(F)c(Cl)c3)C2=O)cc1OC
  .	-0.11
- CCOc1cc(C=C2C(=O)NC(=O)NC2=O)ccc1OCCOc1ccc([N+](=O)[O-])cc1
  .	-0.44
- CCCCNC(=O)Cc1ccc(C)cc1
  -1.1	0.48
- COCCNC(=O)c1cc2nc(-c3ccc(Br)cc3)cc(C(F)(F)F)n2n1
  .	0.015
- O=C(OCC1CC(c2ccccc2)=NO1)c1cccc(C(=O)OCC2CC(c3ccccc3)=NO2)n1 (stereo not given)
  0.1	0.48
- C=CCn1c(SC)nc2sc(C)c(C)c2c1=O
  -0.75	.
- OC(CNC(=S)Nc1ccccc1)c1ccccc1 (stereo not given)
  1.4	-0.17
- COc1cc(/C=C2\C(=O)NC(=O)N(c3ccc(C)cc3)C2=O)cc(Br)c1O
  .	-0.9
- COC(=O)C1CC2(C(=O)OC)CC(C(=O)OC)(CC(C(=O)OC)C2=O)C1=O (stereo not given)
  .	-0.98
- CCCn1c(N)nc2c1c(=O)[nH]c(=O)n2C
  -0.15	.
- CCC(c1nnnn1Cc1ccccc1)N(Cc1cccs1)Cc1cc2ccc(C)cc2[nH]c1=O (stereo not given)
  2.3	.
- O=c1[nH]c(CSC2=NCCS2)nc2ccccc12
  -1.1	.
- S=c1[nH]ncc2ccccc12
  -0.65	-2.9
- COc1ccc(CN2CCCC(C(=O)Nc3c(C)cccc3C)C2)cc1OC (stereo not given)
  -0.65	.
- Cc1ccc(/C=N/c2sc(C)c(C)c2C#N)s1
  0.8	-0.15
- CC(C)n1cnnc1SCC(=O)NC(=O)c1ccc(Cl)cc1
  0.25	.
- CCN1c2ccccc2C2=C(C(c3ccccc3)C(C#N)=C(N)O2)S1(=O)=O (stereo not given)
  -1.1	0.17
- COc1cccc(C2=NN3C(C2)c2cc(Cl)ccc2OC3c2ccc(OC)c(OC)c2)c1 (stereo not given)
  .	-0.35
- CC(=NCc1ccc(C#N)cc1)c1ccccc1O
  0.6	0.48
- O=C(c1cc(Cl)nc2ccccc12)N1CCc2ccccc2C1
  0.4	-0.87
- COc1ccc(NC(=O)Cn2ccc3ccccc3c2=O)cc1OC
  .	3.8
- Cc1nn(-c2cccc(C(=O)O)c2)c(=O)c2ccccc12
  -0.75	0.43
- OC12CC3CC(CC(C3)C1)C2
  1.1	.
- Nc1ccccc1C(=O)N1CCN(c2ccc([N+](=O)[O-])cn2)CC1
  .	-2.2
- Cc1nc2ccccc2n1CC(=O)OC(C)C(=O)NC1CCCC(C)C1C (stereo not given)
  0.15	.
- CN(C)/C=C1/C=C(c2ccccc2)SC1=S
  -0.3	7.2
- O=C(NC1CCCC1)C1CCCN1C(=O)Nc1ccccc1 (stereo not given)
  0.3	.
- Cc1c(S(=O)(=O)NCc2csc(-c3cccs3)n2)cnn1-c1ccccc1
  0.15	64
- CCOc1ncccc1C(=O)Nc1ccc(-c2cn3c(n2)SCC3)cc1
  -0.1	.
- Cc1ccc2oc(=O)c3cc(C(=O)N(Cc4ccco4)CC4CCCO4)sc3c2c1 (stereo not given)
  0.3	0.91
- NC(=O)C1(NCCNC2(C(N)=O)CCCCC2)CCCCC1
  -1.5	.

Three entries out of the list, arranged by molecular weight, low to high.
The line under a structure holds: AID504770	CapD inh
- OC12CC3CC(CC(C3)C1)C2
  1.1	.
- CC(=NCc1ccc(C#N)cc1)c1ccccc1O
  0.6	0.48
- Cc1ccc2oc(=O)c3cc(C(=O)N(Cc4ccco4)CC4CCCO4)sc3c2c1 (stereo not given)
  0.3	0.91

(continued)
The line under a structure holds: AID504770	CapD inh
- COc1cc(Br)cc2cc(C(=O)N3CCN(c4cc(C)ccc4C)CC3)c(=O)oc12
  -0.5	-0.74
- O=C(Nc1ccc2nc3n(c(=O)c2c1)CCCCC3)c1ccco1
  -0.6	-1.5
- CN(C)C(=O)c1ccc(OCC(F)(F)F)nc1
  1.3	-0.05
- COc1ccc(-c2ccc(C#N)c(=O)n2Cc2cccc(Cl)c2)cc1
  .	35

Source: PubChem BioAssay
